# Yeast UUG start: alters start codon recognition fidelity in yeast | AID 602363 | S. cerevisiae UUG-firefly luciferase reporter, luminescence/redox ratio | 350,000 tested, 0.13% active | activity score, % at 18.7 µM;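 active means replicate mean at a twofold rise or more, about +100% in these data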;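 further: firefly luciferase made from a UUG start codon reports start codon fidelity; reporter light over untreated wells divided by growth signal over untreated wells; some hits fall short of that in this replicate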
# MT1-MMP act inh: MT1-MMP (human) activation inhibition; AID 651647; GFP/RFP ratio change, % at 20 µM; 360,000 tested, 0.061% active; P50281; HT1080 RFP-PRO-GFP cells, GFP/RFP ratio fluorescence, overnight; percent of plate control window, DMSO zero;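 active means GFP/RFP ratio change of at least 30% with cell ATP level not reduced by more than half and red fluorescence within 50% of control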; further: strong numbers were not always called active
#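 system = RFP-PRO-GFP reporter HT1080 cells | dosing = 20 µM single dose, 1% DMSO | timing = overnight cell settling, then overnight compound exposure, 37 °C, 5% CO2 | read-out basis = GFP/RFP fluorescence ratio | controls = DMSO and RFP-L50D-GFP cell wells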
# MT1-MMP act inh RFP: second read-out of MT1-MMP act inh, no call of its own (marks repeat the call); RFP signal change, %; measured here: RFP expression control read;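 0 = vehicle wells; hits needed this value within 50% of zero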
# Starred values were filed as active, the others as inactive; & = joins results of further samples. A portion of the library; count on the stated rates, not on these rows.
smiles	MT1-MMP act inh	Yeast UUG start	MT1-MMP act inh RFP
CC1Cc2ccccc2N1C(=O)CN(C)CC(=O)Nc1ccc(F)cc1 (stereo unspecified)	0	-10	3
C#CCN(C[C@@H]1[C@@H](OC(=O)Nc2cccs2)[C@@H](OC(=O)Nc2cccs2)Cn2c(=O)ccc(=O)n21)S(=O)(=O)c1ccc(C)cc1	-16	-6	-29
COc1cc(OC)c(OC)cc1CNC(=O)c1cc(S(=O)(=O)N(C)c2ccccc2OC)ccc1C	-1	-23	-17
CCOc1ccccc1N1CC(C(=O)Nc2cc(S(=O)(=O)N3CCOCC3)ccc2OC(C)C)CC1=O (stereo unspecified)	-4	-10	3
OCC(O)C1OC(c2ccccc2)OC(CO)C1O (stereo unspecified)	-7	-9	1
COc1ccccc1S(=O)(=O)N(C)C[C@@H]1OCc2cnnn2CCCC(=O)N([C@@H](C)CO)C[C@@H]1C	-4	3&-1	2
CC(NC(=O)CN1C(=O)NC2(CCc3ccccc32)C1=O)c1ccccc1 (stereo unspecified)	4	2	-2
CCN(CC)C(=O)C1=C(C)N(CCCN2CCCC2=O)C(=O)C(CC(=O)NCCCN(C)C)C1 (stereo unspecified)	2	-24	2
COc1cccc(CC(=O)OCC(=O)NNC(=O)c2ccc(Br)cc2)c1	1	-18	2
C[C@@H]1CNC(=O)c2c(C(=O)Nc3ccc(CNC(=O)OC(C)(C)C)cc3)ncn21	2	13	-19
CCNC(=O)C1CCCN(C(=O)c2cccc3ccccc23)CC1 (stereo unspecified)	5	-4	0
COCCNC(=O)C1(C)CCN(C(=O)c2sc(-c3ccccc3)nc2C)C1 (stereo unspecified)	5	-13	-3
CC(=O)c1c(C)[nH]c(C(=O)COC(=O)c2c(C)noc2C)c1C	7	-1	-5
Cc1ccc(S(=O)(=O)N2CCN(C(=O)C3CC(=O)N(c4ccc5c(c4)OCCO5)C3)CC2)cc1 (stereo unspecified)	4	5	-4
COc1ccc(NS(=O)(=O)c2cc(NS(=O)(=O)c3cc(C(=O)O)ccc3OC)ccc2C)cc1	-1	3	3
O=C1c2ccccc2NC(c2ccc(-c3ccc(C(F)(F)F)cc3)o2)N1O (stereo unspecified)	-1	-13	-10
Cn1nc(C(=O)NNC(=O)CCOc2ccc(C(C)(C)C)cc2)c2ccccc2c1=O	8	-6	0
COc1ccc(C(O)c2ncc(-c3cccc(OCc4ccccc4)c3)[nH]2)cc1F (stereo unspecified)	4	-6	-3
COc1cc(OC)cc(C(=O)NC(C(=O)Nc2ccc3c(c2)OCCO3)C(C)C)c1 (stereo unspecified)	14	-25	-10
Cc1ccc(NC(=O)COc2ccccc2C(N)=O)cc1S(=O)(=O)N1CCCCCC1	5	8	-31
COc1ccccc1NS(=O)(=O)c1cc(NC(=O)CN2C(=O)NC3(CCCCC3)C2=O)ccc1C	1	-5	-2
Cc1ccc(Oc2ccc(S(=O)(=O)Nc3ccc(C(=O)O)cc3)cc2)cc1	0	5	-3
Cc1cc(NC(=O)CSc2nnc(-c3ccco3)n2C)no1	-1	-19	4
OC(c1ccccc1)(c1nc(-c2cc(F)cc(F)c2)cs1)C(F)(F)F (stereo unspecified)	3	-19	3

# A different layout for some results above.
MT1-MMP act inh	Yeast UUG start	MT1-MMP act inh RFP	Structure
3	-19	3	OC(c1ccccc1)(c1nc(-c2cc(F)cc(F)c2)cs1)C(F)(F)F (stereo unspecified)
4	5	-4	Cc1ccc(S(=O)(=O)N2CCN(C(=O)C3CC(=O)N(c4ccc5c(c4)OCCO5)C3)CC2)cc1 (stereo unspecified)
4	-6	-3	COc1ccc(C(O)c2ncc(-c3cccc(OCc4ccccc4)c3)[nH]2)cc1F (stereo unspecified)

# Taken from above for reference:
smiles	MT1-MMP act inh	Yeast UUG start	MT1-MMP act inh RFP
COc1ccccc1NS(=O)(=O)c1cc(NC(=O)CN2C(=O)NC3(CCCCC3)C2=O)ccc1C	1	-5	-2
Cc1ccc(Oc2ccc(S(=O)(=O)Nc3ccc(C(=O)O)cc3)cc2)cc1	0	5	-3

# The results go on.
smiles	MT1-MMP act inh	Yeast UUG start	MT1-MMP act inh RFP
O[C@@H]1CN(Cc2cccs2)[C@@H](c2ccc(Cl)cc2)C[C@H]1n1cc(-c2ccc(F)cc2)nn1	3	-9	-4
Cc1cc2c(cc(C(=O)OCC(=O)NC3CCCCC3)n2C)o1	0	-10	2
CCC(=O)N1CCCC(C(=O)Nc2nc3ccccc3[nH]2)CC1 (stereo unspecified)	3	-16	0
NC(=O)C1CCCN(C(=O)c2ccc(-c3cccc(Cl)c3Cl)o2)C1 (stereo unspecified)	1	-17	-4
CCc1ccc(C(=O)NNC(=O)C2CC(=O)N(c3ccc4c(c3)OCCO4)C2)cc1 (stereo unspecified)	-4	-10	-2
CCOc1ccc(S(=O)(=O)NC2=NCCCCC2)cc1	-1	1	0
N#Cc1c2ccc([N+](=O)[O-])cc2[n+]([O-])n1-c1ccccc1	-25	27	-22
O=S(=O)(CCNCc1ccco1)NCc1ccccc1	1	-12	3
CC(OC(=O)CN1C(=O)c2ccccc2C1=O)C(=O)c1ccccc1 (stereo unspecified)	-2	-9	-1
O=C(C[C@@H]1C[C@H]2c3cc(NC(=O)Nc4ccccc4F)ccc3O[C@H]2[C@H](CO)O1)NCC(F)(F)F	2	-7	2
Cc1cccc(OCCCC(=O)NNC(=O)c2ccccn2)c1	5	-25	3
CC(=O)c1ccc2c3c(ccc([N+](=O)[O-])c13)CC2	0	-22	-6

# Record cards (already shown). Order of screens: MT1-MMP act inh	Yeast UUG start	MT1-MMP act inh RFP
# Profile of `CCC(=O)N1CCCC(C(=O)Nc2nc3ccccc3[nH]2)CC1` (stereo unspecified) : 3	-16	0
# Profile of `CC(OC(=O)CN1C(=O)c2ccccc2C1=O)C(=O)c1ccccc1` (stereo unspecified) : -2	-9	-1
# Profile of `CCc1ccc(C(=O)NNC(=O)C2CC(=O)N(c3ccc4c(c3)OCCO4)C2)cc1` (stereo unspecified) : -4	-10	-2

# Continued:
smiles	MT1-MMP act inh	Yeast UUG start	MT1-MMP act inh RFP
COc1cc(OC)c(OC)cc1CNC(=O)c1ccc(S(=O)(=O)N2CCCCC2)cc1	8	8	-7
Cc1sc(NC(=O)CSc2n[nH]c(N)n2)c(C#N)c1C	-4	-31	10
N#CCc1ccc(NC(=O)CSc2nnc(C3CC3)n2C2CC2)cc1	2	-25	-10
CCOc1cc(N2CCOCC2)c(OCC)cc1NC(=O)COC(=O)c1ccc([N+](=O)[O-])o1	1	20	0
Cc1ccccc1NC(=O)Cc1nc(COC(=O)C(NC(=O)c2ccccc2C)C(C)C)cs1 (stereo unspecified)	0	-11	-1
O=C(Nc1ccc2c(c1)OCCO2)C1CCCC1	3	-63	3
CCOc1ccc(S(=O)(=O)N2CCN(C(=O)CN3C(=O)NC(C)(C)C3=O)CC2)cc1	-2	-3	3
CN(C(=O)c1ccccc1C(=O)OCC(=O)c1ccccc1)c1ccccc1	0	-7	4
C[C@@H]1CN([C@@H](C)CO)C(=O)CCCn2cc(nn2)CO[C@H]1CN(C)C(=O)CCCN(C)C	0	-8&-6	2
Cc1cc(OCC(=O)OCC(=O)Nc2ccc(Cl)cn2)ccc1Cl	-5	-9	1
COc1ccc(C2CC=C(C(C)=O)CN2S(=O)(=O)c2ccc(C)cc2)cc1 (stereo unspecified)	7	8	5
CCC[C@H]1CN(Cc2ccccc2)C(=O)[C@@H]1CC(=O)NC	-3	-11	6

# Reprinted from the part before: five compounds; new compounds follow.
smiles	MT1-MMP act inh	Yeast UUG start	MT1-MMP act inh RFP
CN(C(=O)c1ccccc1C(=O)OCC(=O)c1ccccc1)c1ccccc1	0	-7	4
C[C@@H]1CN([C@@H](C)CO)C(=O)CCCn2cc(nn2)CO[C@H]1CN(C)C(=O)CCCN(C)C	0	-8&-6	2
Cc1cc(OCC(=O)OCC(=O)Nc2ccc(Cl)cn2)ccc1Cl	-5	-9	1
COc1ccc(C2CC=C(C(C)=O)CN2S(=O)(=O)c2ccc(C)cc2)cc1 (stereo unspecified)	7	8	5
CCC[C@H]1CN(Cc2ccccc2)C(=O)[C@@H]1CC(=O)NC	-3	-11	6
COCCNC(=O)C1(C)CCN(Cc2noc(-c3c(C)noc3C)n2)C1 (stereo unspecified)	4	9	7
O=c1cc(-c2ccccc2)oc2cccc(O)c12	-6	-13	-3
O=C(O)/C(=C\c1cccc(F)c1)c1ccc(S(=O)(=O)N2CCCC2)s1	5	2	3
O=C(NC1CCCCC1)c1cc(C2CC2)nn1-c1ccccc1	0	10	-1
CC[C@@H](C)[C@@H]1CN([C@@H](C)CN2CCC[C@H]2CN2C(N)=NC[C@@H]2Cc2ccccc2)C(=N)N1CCc1ccc(Cl)c(Cl)c1	2	-13	8
CCCOc1ccc(F)cc1-c1cc(C(=O)NCc2cccc(C(F)(F)F)c2)[nH]n1	-2	-20	-3
COc1ccc(NC(C)=O)cc1S(=O)(=O)N1CCn2cccc2C1C (stereo unspecified)	-5	1	3
Cc1ccc(NC(=O)CC2OC(=O)c3ccccc32)cc1S(=O)(=O)N1CCOCC1 (stereo unspecified)	-2	-15	0
CCOC(=O)C1=CCC(c2ccccc2C(F)(F)F)N(S(=O)(=O)c2ccc(C)cc2)C1 (stereo unspecified)	-3	-11	-6
COc1ccc(C(=O)OCC(=O)NC2CC2)cc1S(=O)(=O)Nc1ccc(C)cc1	-2	-5	0
CCc1ccc([C@H]2[C@@H]3C(=O)C[C@@H]4C(=O)N(c5ccccc5)C(=O)[C@@H]4[C@@H]3CN2S(=O)(=O)c2ccc(C)cc2)cc1	3	-11	3
O=C(COc1ccc2c(-c3ccccc3)cc(=O)oc2c1)N1C[C@H]2C[C@@H](C1)c1cccc(=O)n1C2	-5	-14	-1
CCOC(=O)C1C(C(=O)OC)=C(c2ccc(OC)cc2)c2ccc(OC)cc2N1S(=O)(=O)C(F)(F)F (stereo unspecified)	-1	-23	-3
O=C(CC1CCCC1)N1CCN(S(=O)(=O)c2ccccc2)CC1	-5	-14	-1
CCNC(=O)C1(C)CCN(C(=O)c2cccs2)C1 (stereo unspecified)	1	-5	7
O=c1[nH]c(=S)c2[nH]c(=S)n(-c3ccccc3)c2[nH]1	1	-14	4
Cc1ccc(NC(=O)COC(=O)CN2C(=O)c3ccccc3C2=O)cc1	3	-7	5
O=C(CC1(CC(=O)N2CCOCC2)CCCC1)Nc1ccccc1	1	-1	4
CN1C=CC(C(C(N)=O)c2ccccc2)c2ccccc21 (stereo unspecified)	-7	-5	7
CCN(CC(=O)Nc1ccc(NC(C)=O)cc1)C(=O)c1ccc2c(c1)OCCO2	-3	-25	-1
Cc1ccc(S(=O)(=O)NCc2ccc(C(=O)NC3CCC(O)CC3)cc2)cc1C (stereo unspecified)	2	-13	1
N#CCCn1cc(C(=O)CN2C(=O)NC3(CCCCCC3)C2=O)c2ccccc21	7	4	0
O=C(O)c1cc(-c2cc(C(=O)O)c3ccccc3n2)ccc1O	1	-8	2
O=C(CN1C(=O)NC2(CCCCCC2)C1=O)N1CCN(c2ccc(F)cc2)CC1	4	-2	0
Cc1cc(C(=O)OCC(=O)Nc2cc(Cl)ccc2C)c(C)o1	3	2	3
COC[C@@H]1NS(=O)(=O)c2ccc(Br)cc2O[C@H]1c1ccccc1	2	-5	-1
CC(=O)OC1CC2(C)C(CCC2(O)C(C)=O)C2CCC3C(Cl)C(=O)CCC3(C)C12 (stereo unspecified)	-5	-14	-2
COc1ccc(Cl)cc1S(=O)(=O)NC(C)C(=O)NCCN1CCOCC1 (stereo unspecified)	1	-28	2

# Source: PubChem BioAssay (several laboratories)
